CSC inhib: cancer stem cell viability inhibitors, primary screen, luminescence; cancer stem cell-like cells viability; inhibition, % at 7.5 µM; 1.1% of 300,000 active; AID 2717, 2010;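 active means mean at 75% or more and at least half the replicates too; inconclusive means mean and replicates disagree; tested in HMLE shEcad cells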;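 further: 0% = median of negative and 100% = median of positive control wells; the first replicate is given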
PABP FP inh: PABP poly(A) RNA binding inhibitors, primary screen, biochemical, fluorescence polarization, uHTS; Polyadenylate-binding protein 1 (Homo sapiens), P11940; inhibition, % at 35 µM; 1% of 290,000 active;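 active means 50% or more with normal probe brightness, or confirmed in later tests; inconclusive means above 50% with abnormal brightness, or retests that disagree; inactive means below 50% or failed in later tests; about a fifth of its hits are not listed in these tables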;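 further: calls also rest on retests at 20 µM and on dose response follow-up; controls were probe without protein and protein plus probe with vehicle; some compounds called inactive have numbers as strong as hits; many hits fall short of the cut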
Target sequence (P11940 whole entry, looked up): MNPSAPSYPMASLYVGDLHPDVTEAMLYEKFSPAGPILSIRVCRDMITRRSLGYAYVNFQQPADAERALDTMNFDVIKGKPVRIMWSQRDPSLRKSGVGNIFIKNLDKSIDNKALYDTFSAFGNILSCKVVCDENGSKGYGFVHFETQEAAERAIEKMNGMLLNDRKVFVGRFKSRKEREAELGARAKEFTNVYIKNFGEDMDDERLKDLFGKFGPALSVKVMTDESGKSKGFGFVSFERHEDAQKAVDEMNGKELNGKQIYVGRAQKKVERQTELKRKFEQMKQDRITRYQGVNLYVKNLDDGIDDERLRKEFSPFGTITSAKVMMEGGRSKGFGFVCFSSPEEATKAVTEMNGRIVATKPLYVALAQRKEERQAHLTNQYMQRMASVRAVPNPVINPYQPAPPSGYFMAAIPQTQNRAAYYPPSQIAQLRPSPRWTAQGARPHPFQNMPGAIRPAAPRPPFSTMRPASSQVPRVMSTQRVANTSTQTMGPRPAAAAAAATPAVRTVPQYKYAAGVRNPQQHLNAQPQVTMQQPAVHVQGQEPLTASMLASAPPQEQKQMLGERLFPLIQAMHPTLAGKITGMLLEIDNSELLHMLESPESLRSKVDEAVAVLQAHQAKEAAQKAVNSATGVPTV
UUG fidelity: modulators of yeast start codon fidelity, primary screen, whole organism, S. cerevisiae, single point, plate reader; S. cerevisiae UUG-firefly luciferase reporter, luminescence/redox ratio; activity score, % at 18.7 µM; 0.13% of 350,000 active; AID 602363, 2012;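 active means replicate mean at a twofold rise or more, about +100% in these data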;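 further: firefly luciferase made from a UUG start codon reports start codon fidelity; reporter light over untreated wells divided by growth signal over untreated wells; some hits fall short of that in this replicate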
HIV Env fusion: inhibitors of HIV-1 Env-driven cell-cell fusion, primary screen, HeLa-JRFL effector, CEM21 target cells, luciferase. inhibition, % at 12.3 µM. 1.1% of 360,000 active. AID 651610, 2012;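 active means mean replicate inhibition score of at least 50 and every replicate individually at or above 50; inconclusive means only one of the two criteria met; inactive means mean below 50 and not all replicates reaching 50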;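 further: 0% = plate neutral controls and 100% = maraviroc near 300 nM; one replicate is shown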
eIF4H inh: human eIF4H binding inhibitors, primary screen, translation initiation inhibitor project, biochemical, uHTS, fluorescence polarization. Eukaryotic translation initiation factor 4H (Homo sapiens), Q15056. inhibition, % at 35 µM. eIF4H fluorescence polarization binding assay. 0.94% of 290,000 active;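 active means 50% or more with normal probe brightness, or confirmed in later tests; inconclusive means above 50% with abnormal brightness, or retests that disagree; inactive means below 50% or failed in later tests; about a fifth of its hits are not listed in these tables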;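 further: calls also rest on retests at 20 µM and on dose response follow-up; 0% = protein and probe with vehicle and 100% = probe without protein; strong numbers were not always called active; many hits fall short of the cut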
Rce1 inh: yeast Rce1p protease inhibitors, primary screen, biochemical, fluorescence, cell-free homogeneous | calls only | yeast membranes, quenched prenylated peptide cleavage fluorescence | 0.27% of 290,000 active;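 active means fall in fluorescence gain of 50% or more versus controls, with final raw signal at or below 3038400; inconclusive means same 50% fall but final raw signal above 3038400; inactive means fall in fluorescence gain under 50%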;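 further: plate controls were neutral control wells for no effect and wells lacking membranes for full effect; tested at 10 µM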
MT1-MMP act inh: blockers of MT1-MMP proenzyme processing, primary screen, HT1080 RFP-PRO-GFP cells, GFP/RFP fluorescence. Matrix metalloproteinase-14 (Homo sapiens), P50281. GFP/RFP ratio fluorescence, overnight; percent of plate control window, DMSO zero. GFP/RFP ratio change, % at 20 µM. 0.061% of 360,000 active. AID 651647, 2012;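 active means GFP/RFP ratio change of at least 30% with cell ATP level not reduced by more than half and red fluorescence within 50% of control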; further: strong numbers were not always called active
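Assay system: HT1080 RFP-PRO-GFP cells. Benchmarks: DMSO vehicle wells and RFP-L50D-GFP reporter cell wells. Times: overnight cell settling, then overnight compound exposure, 37 °C, 5% CO2. Compound: 20 µM single dose, 1% DMSO. Read-out basis: GFP/RFP fluorescence ratio.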
eIF4H inh retest: further read-out of eIF4H inh, marked with its call; inhibition, %; compound at 20 µM; confirmation average;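 mean of two retest wells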
PABP FP inh retest: second read-out of PABP FP inh, no call of its own (marks repeat the call); inhibition, %; compound at 20 µM; confirmation repeats;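 mean of two retest wells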
MT1-MMP act inh RFP: also measured in MT1-MMP act inh; calls as there; RFP signal change, %; measured here: RFP expression control read;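 0 = vehicle wells; hits needed this value within 50% of zero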
* hit, by the source's call; i = inactive; ? = inconclusive; . = no result given.

SMILES	CSC inhib	PABP FP inh	UUG fidelity	HIV Env fusion	eIF4H inh	Rce1 inh	MT1-MMP act inh	MT1-MMP act inh RFP	others
Cc1ccc(N(NC(=O)C(C)(C)O)C(=O)c2ccccc2)cc1C	-4	0	-1	.	0	i	-2	0
COc1ccc(CN2CCC(C(=O)c3cccc(Cl)c3)CC2)cc1	5	6	-7	0	-4	i	2	6
Cc1ccc(-n2ncc3c(=O)n(-c4ccc(C)c(C)c4)c(C)nc32)cc1	-18	-2	-11	-108	-1	i	9	-5
CCN(CC(=O)Nc1ccc(C)c(S(=O)(=O)N(C)C)c1)Cc1ccccc1	4	3	6	19	6	i	4	1
CN(C)S(=O)(=O)c1cccc(NC(=O)CSc2ncnc3ccccc23)c1	6	-12	.	29	5	i	-2	-19
Cc1ccc(-c2nnc(CSc3nnc(COc4cccc5ccccc45)n3-c3ccccc3)o2)cc1	.	-6	0	.	-4	i	-5	-16
CCN(CC(=O)Nc1ccc(NC(C)=O)cc1)C(=O)c1cccc(S(=O)(=O)N2CCc3ccccc3C2)c1	-1	.	6	-2	.	i	-2	3
CCCCSc1nc(N)c(C#N)c(-c2cccs2)c1C#N	-4	3	3	.	0	i	7	-8
Nc1sccc1C(=O)c1ccccc1	.	10	.	.	-2	i	.	.
CCCCn1c(O)c(C=NCCCN(C)C)c(=O)[nH]c1=O	-13	0	-15	.	-7	i	-1	4
Cc1ccc(-n2c(SCC(=O)NCC3CCCO3)nc3ccccc3c2=O)cc1C (stereo unspecified)	-8	.	.	12	.	i	-1	-1
O=C(Nc1ccc2c(c1)nc1n2CCN(C2CCCCC2)C1)c1ccco1	.	22	-16	-57	94*	.	-8	-5	eIF4H inh retest=99*;PABP FP inh retest=44
COc1ccccc1-c1cnc(C(O)c2ccc(CN3CCCCC3)cc2)[nH]1 (stereo unspecified)	.	.	-17	4	.	.	2	8
COCCNC(=O)CN1C(=O)NC2(CCCCCC2)C1=O	-7	-5	.	-31	-4	i	-1	2
O=C(CCn1c(=O)sc2ccccc21)Nc1cccnc1	-2	-10	-2	.	-2	i	7	2
C(=Cc1cnc2ccccc2n1)c1ccc2c(c1)OCO2	.	.	-83	68*	.	.	-1	-2
O=C(COc1cccc2cccnc12)NNC(=S)Nc1ccccc1	-8	-11	.	.	10	i	.	.
CCCn1c(C(C)NC(=O)c2ccccc2)nc2ccccc21 (stereo unspecified)	.	-7	-11	-33	3	i	-9	-1
Nc1cc(N)cc(Cc2ccccc2)c1	.	.	-10	-2	.	.	6	4
CC(=O)Nc1ccc(-n2nnnc2SCC(=O)NCc2cccs2)cc1	.	2	.	-8	0	i	2	2
Cc1nc(SCC(=O)O)c2oc3ccccc3c2n1	-3	0	-9	25	-3	i	-5	-3
CCOC(=O)C(CCCOc1cccc(CC)c1)C(=O)OCC	-4	-2	-5	19	2	i	2	0
CCOCc1nnc(NC(=O)c2c(-c3ccccc3)noc2C)s1	.	2	2	0	-10	i	-5	-4
Cc1nnsc1-c1c(C(=O)Oc2ccccc2)c(C)nn1-c1ccccc1	18	-5	-7	24	-3	i	-2	-1
O=C(CN1CCOCC1)Nc1ccc([N+](=O)[O-])cc1	-7	3	-30	0	2	i	1	-3

The closing 3 records of the part before open the next one.
SMILES	CSC inhib	PABP FP inh	UUG fidelity	HIV Env fusion	eIF4H inh	Rce1 inh	MT1-MMP act inh	MT1-MMP act inh RFP	others
CCOCc1nnc(NC(=O)c2c(-c3ccccc3)noc2C)s1	.	2	2	0	-10	i	-5	-4
Cc1nnsc1-c1c(C(=O)Oc2ccccc2)c(C)nn1-c1ccccc1	18	-5	-7	24	-3	i	-2	-1
O=C(CN1CCOCC1)Nc1ccc([N+](=O)[O-])cc1	-7	3	-30	0	2	i	1	-3
COc1ccc(/C=N/n2cnnc2SCCO)cc1OC	-5	-8	-11	.	-12	i	2	10
CCN(CCC#N)c1ccc(/C=N/Nc2nc(C)cc(=O)[nH]2)c(C)c1	0	63*	.	-33	2.2*	i	0	-1	eIF4H inh retest=60*;PABP FP inh retest=62*
O=c1c2oc3ccccc3c2ncn1Cc1ccccc1F	-1	-4	.	-10	1	i	0	0
COc1ccc(C2c3[nH]c4ccccc4c3CCN2Cc2cccn2-c2ncccn2)cc1C (stereo unspecified)	-4	24	-12	37	24	i	-25	-21
COc1cc([C@H]2[C@@H]3CCCC[C@]3(O)CCN2CC(=O)Nc2ccc(C)cc2C)ccc1O	2	-1	12	-140	0	i	0	-1
Cc1cc(C)n(C(=O)CCNC(=O)c2ccccc2Br)n1	-3	2	-13	.	-3	i	2	1
Cc1cccc(NC(=O)/C=C/c2ccc([N+](=O)[O-])s2)c1	107*	0	.	-292	-5	i	-177	-23
COc1cccc(C(=O)N=c2sc3cc(S(C)(=O)=O)ccc3n2C)c1	-15	11	.	-22	-6	i	2	6
COc1ccc2c(c1)cc(C(=O)N[C@H](C(=O)N1CCC[C@H]1C(=O)O)C(C)C)n2C	11	-2	-12	.	0	i	0	2
O=C(COC(=O)c1ccc2c(c1)S(=O)(=O)c1ccccc1C2=O)NC1CC1	-1	-16	-15	2	-5	i	1	2
Cc1ccn2cc(C34CC5CC(CC(C5)C3)C4)nc2c1	33	0	0	4	-1	i	-5	-8
CCN1C(=O)/C(=C2/Sc3ccccc3N2CC)S/C1=N\c1ncn[nH]1	21	?	-56	-5	?	i	-27	-9
CCOC(=O)c1c(CSc2ccc(C)cc2)n(C)c2cc(Br)c(O)c(CN(C)C)c12	97*	6	6	87*	18	i	0	-7
Cc1cc(C)cc(NC2=NCC(=O)N2Cc2ccccc2)c1	-6	12	-3	-37	-11	i	3	4
CCCCC1CC2=C(C(=O)OC(C)(C)O2)C(c2cccc3ccccc23)O1 (stereo unspecified)	.	.	-23	-2	.	.	-2	-7
Cc1cc2nn(-c3cccc4ccccc34)nc2cc1N	-6	1	3	-36	5	i	-4	-1
O=C(O)CC(NC(=O)C12CC3CC(CC(C3)C1)C2)c1cccc(Cl)c1 (stereo unspecified)	2	0	-5	8	3	i	0	0
CCOC(=O)c1ccc(NC(=O)CC2COc3ccccc3O2)cc1 (stereo unspecified)	-1	-2	-6	.	-6	i	-2	-1
CCOc1ccc2nc(NC(=O)C34CC5CC(CC(NC(C)=O)(C5)C3)C4)sc2c1	8	10	-5	-27	-5	i	1	-9
NC(=O)c1ncc(C(F)(F)F)cc1Oc1cccnc1	-28	22	.	16	-20	i	-4	0
CCc1ccc(OC(C)C(=O)Nc2ccccc2C(=O)N2CCOCC2)cc1 (stereo unspecified)	-23	4	14	-2	-2	i	-1	-2
CCCCCC(=O)Cc1cc(O)cc2c1C(=O)Oc1cc(O)c(C(=O)O)c(CCCCC)c1O2	51	41	.	.	10	i	.	.
O=C(c1cc(-c2cccc(Cl)c2)on1)N1CCCC1	6	8	-1	-50	1	i	-1	2
NC(=O)c1ccc2c(=O)n3c(-c4cccs4)csc3nc2c1	-3	4	-8	-22	-2	i	2	-3
N#Cc1c(-c2ccco2)c2c([nH]c1=S)CCCC2	7	-3	-23	.	36	i	4	6
SMILES	CSC inhib	PABP FP inh	UUG fidelity	HIV Env fusion	eIF4H inh	Rce1 inh	MT1-MMP act inh	MT1-MMP act inh RFP	others
COc1cc(OC)c(OC)cc1/C=C1/Cc2ccccc2C1=O	-9	?	-23	12	?	i	-135	-9
O=C(CCC(=O)N1CCOCC1)Nc1nnc(C2CCCCC2)s1	-10	3	-15	-119	3	i	5	4
O=C1CN(S(=O)(=O)c2cc(Cl)ccc2Cl)CCN1	-11	9	-15	-4	8	i	-2	1
CC(=O)Nc1ccc(Sc2ccc([N+](=O)[O-])o2)cc1	.	.	-51	i	.	.	-10	-20
CN1C(=O)C(CC(=O)NC2CCCCC2)SC1=Nc1ccccc1 (stereo unspecified)	-6	7	-14	0	-7	i	-9	-3
CCN(CC)C(=O)C1CCC(CNS(=O)(=O)c2cccc3cccnc23)CC1 (stereo unspecified)	-15	-28	-5	-5	-10	i	-5	4
CCCN1CCN(CCCNC(=O)CN2C(=O)c3cccnc3Oc3ccc(Cl)cc32)CC1	-10	-4	-16	1	-8	i	-3	5
Cn1c2ccccc2c2cc(/C=N/NC(=O)c3ccc(O)cc3O)ccc21	10	-6	-2	.	44	i	1	2
O=C(Nc1ccc(-c2cnco2)cc1)c1ccccc1	2	-2	.	-49	0	i	4	2
Cc1cc(-c2ccccc2)n2ncnc2n1	-14	2	-18	-4	-4	i	-2	3
COC(=O)C1=C(C(=O)c2ccccc2)C(c2ccccc2)n2nnnc2N1 (stereo unspecified)	5	0	.	6	-4	i	0	4
O=C(CN1CCOCC1)NCc1cc([N+](=O)[O-])ccc1O	-5	-2	-13	-33	0	i	6	-2
CCCCn1c(N)c(N(CC(C)C)C(=O)C2CC(=O)N(c3ccc(CC)cc3)C2)c(=O)[nH]c1=O (stereo unspecified)	1	.	.	1	.	i	-7	-3
CCN(CC)CCN(Cc1cc2cc3c(cc2[nH]c1=O)OCCO3)C(=S)NCCOC	.	.	-10	-11	.	.	-3	5
Cc1ccc(Nc2nc(-c3sc(N)nc3C)cs2)cc1	16	17	-5	-35	6	i	1	5
O=C(c1ccccc1)c1ccc2nc(N3CCN(C(=O)c4ccco4)CC3)c3nncn3c2c1	13	3	-6	30	46	i	-4	-3
COCCNC(=O)C1(C)CCCN(C(=O)c2ccc(-c3ccccc3)cc2)C1 (stereo unspecified)	.	.	0	-2	.	.	4	-4
Nn1cc(-c2ccccc2)nc1SCC(=O)Nc1cccc(S(N)(=O)=O)c1	-14	0	-21	-11	-8	i	4	1
CN(C)/C=C1\C(=O)N(c2ccc(Cl)c(Cl)c2)CS1(=O)=O	3	-2	.	-5	-6	i	2	0
CN(C)/C=C1/Sc2ccccc2C1=O	13	8	-10	1	6	i	-5	5
COc1ccc(Br)cc1C(=O)Nc1cccc2ncccc12	-12	-22	.	-18	-13	i	0	-2
O=C1NC(c2ccccc2)CCC1(Cl)Cl (stereo unspecified)	-11	12	-22	-18	0	i	1	-3
Cc1ccc(CC#N)c(-c2c(CC#N)ccc(C)c2C)c1C	.	.	-3	40	.	.	0	-2
CC(C)(C)n1nnnc1C(c1cccs1)N(Cc1ccccc1)Cc1ccco1 (stereo unspecified)	.	-5	-4	.	-3	i	-2	-4
O=C1NC(=O)/C(=C\c2ccc(OCc3cnc(Cl)s3)cc2)S1	-1	-4	.	-37	39	i	-2	-5
COc1ccccc1CNc1ccc(N2CCOCC2)c(C(=O)O)c1	-12	-6	4	0	-11	i	1	6
Cc1cccc(CN2CCc3c(OCC(=O)N4CCCc5ccccc54)cccc3C2=O)c1	53	-4	1	32	4	i	-3	-15
O=C(NNc1c(Cl)cncc1Cl)c1sccc1Cl	3	2	3	11	-4	i	-5	-10
CCOC(=O)C1CCCN(C(=O)c2cc(-c3ccc(C)cc3)on2)C1 (stereo unspecified)	-1	4	12	11	-2	i	3	2
Cc1cccc(C(C(=O)NCc2ccc(F)cc2)N(C(=O)c2csnn2)C2CC2)c1 (stereo unspecified)	4	4	-12	-1	-5	i	-1	3

From PubChem BioAssay
